High-throughput results: PubChem BioAssay, several laboratories
Sa ugtP lethal = kills S. aureus RN4220 lacking UgtP | S. aureus RN4220 ugtP deletion, OD600 growth, 16 h; some inactives read as strong as hits | growth inhibition, % (concentration not given with the values) | 330,000 compounds, 0.54% hits;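 active = z-score under -3 and OD600 up to 0.15 on both plates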;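 also: plate controls were untreated wells for no effect and antibiotic for full effect; wells of about 80 µL received 100 nL stock; the first replicate is given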
BJeLR lethal = kills HRASV12-expressing BJeLR cells; BJeLR (HRASV12) viability, CellTiter-Glo ATP luminescence, 48 h; reference of the scale not given here; inhibition, % (test concentration not listed); 300,000 compounds, 0.17% hits; AID 1554;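 active = replicate mean above 50%; inconclusive = above 50% but judged a plate artefact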;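 also: 50 nL library stock added to about 25 µL; numbers are from one replicate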
Sa RN4220 lethal = S. aureus RN4220 growth inhibition; OD600, 16 h; inhibition, % (test concentration not listed); 330,000 compounds, 0.33% hits;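 active = z-score of -3 or lower and OD600 up to 0.18 on both plates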;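 also: plate controls were untreated cells for no effect and reference antibiotic for full effect; stock transfer was 100 nL into about 80 µL; one replicate is shown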
Mtb hypoxia inh = reduces hypoxia-regulated biosensor signal in M. tuberculosis | M. tuberculosis hypoxia-regulated fluorescent reporter, fluorescence | fluorescence inhibition, % (test concentration not listed) | 300,000 compounds, 0.1% hits | AID 1159583;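 active = 35 to 45% if threefold the growth effect, above 45% if 1.5-fold the growth effect; inactive = the rest, general growth blockers included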;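 also: wells of about 50 µL received 100 nL stock; 0% = vehicle wells and 100% = reference inhibitor wells; whole bacteria with a GFP reporter of the hypoxia response; strong numbers were not always called active; many hits fall short of the cut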
Autofluor counter = counter-screen for toxin protease inhibitors: compound fluorescence. compound autofluorescence counterscreen, microsphere flow cytometry; stronger effect = higher value. fluorescence intensity (test concentration not listed). 360,000 compounds, 3.1% hits. AID 624483;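 active = at least 3 SD above the mean of all compounds, about 16000 in these data; inconclusive = too few beads counted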;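 also: 100 nL of 1 mM stock went into each well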
PrP UTR inh = inhibition of PrP 5' UTR reporter expression | cell-based PrP 5' UTR mRNA reporter, plate reader | 340,000 compounds, 0.35% hits | inhibition, % (no concentration beside the values);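 active = every replicate at 50% or more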;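 also: 0 = median of the neutral control wells; tested in H4 reporter cells; numbers are from one replicate; inactives centre near -14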
Mtb hypoxia inh growth = second read-out of Mtb hypoxia inh, no call of its own (marks repeat the call); growth inhibition, %; measured here: M. tuberculosis growth (absorbance);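 0% = vehicle and 100% = reference antibiotic; read after six days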
* hit, by the source's call; ? = inconclusive; · = not tested or not shown.

Every second line gives: Mtb hypoxia inh growth	Mtb hypoxia inh	Autofluor counter	Sa RN4220 lethal	Sa ugtP lethal	BJeLR lethal	PrP UTR inh
> O=C(N=C1SC2CS(=O)(=O)CC2N1c1ccc(F)cc1F)C1CC1 (configuration not stated)
    8	7	5448	-0.3	-1	-2	-8
> O=C(Nc1ccc(S(=O)(=O)NCc2cccnc2)cc1)c1ccccc1Cl
    4	9	2449	3.3	1	17	-18
> O=C(Nc1ccc(-n2cnnn2)cc1)C(c1ccccc1)c1ccccc1
    ·	·	4685	·	·	-2	-28
> CCn1ccc(C(=O)N2CCOCC2)n1
    3	-3	2407	3.7	5	-2	-2
> Cc1cc(C)cc(NC(=O)CSc2nc3[nH]c(=O)cc(O)c3s2)c1
    5	9	4013	5.6	14	-6	-31
> CC1CN(S(=O)(=O)N(C)C)CCN1S(=O)(=O)N(C)C (configuration not stated)
    8	17	19855*	5.6	3	3	-7
> CCNC(=O)NNC(=O)C1CC(c2cccs2)=NO1 (configuration not stated)
    9	-6	4254	1.6	-7	1	-9
> COc1ccc(Cl)cc1NC(=O)CN1CCN(Cc2ccccc2)CC1
    7	6	3802	0.6	12	-6	-33
> COc1cc(C(=O)Nn2c(O)c(C3=c4ccccc4=NC3=O)sc2=S)ccc1O
    9	3	4092	6.6	13	-1	-7
> O=C(COc1ccccc1Cl)Nc1ccc(C(=O)O)cc1NC(=O)COc1ccccc1Cl
    -37	15	·	1.8	5	-9	-14
> COc1cc(C=O)ccc1OCCOCCOc1ccc(Cl)cc1Cl
    ·	·	2132	11	10	4	26
> CO/N=C/CC(=O)c1cnc(-c2ccccc2)s1
    ·	·	3250	·	·	2	-33
> CC(=O)c1cccc(NC(=O)COc2ccccc2)c1
    2	9	14777	5.4	3	-10	-10
> COc1cccc(NC(=O)Nc2cnccn2)c1
    3	10	2148	2.6	1	-1	-27
> COc1ccc(N(CC(=O)N2CCOCC2)S(C)(=O)=O)c(OC)c1
    -6	-3	3109	1.8	4	-6	-10
> COc1cccc(CNC(=O)CCC2CCCN(C(=O)c3csc(C(C)C)n3)C2)c1 (configuration not stated)
    -6	9	4543	5.7	11	6	-5
> CC(C)(C)C(=O)NC(=S)Nc1ccc(Cl)c(C(=O)O)c1
    5	-5	4024	8.7	1	·	-26
> Cc1c(C(=O)Nc2ccccc2N2CCN(C)CC2)oc2ccc(F)cc12
    -7	0	?	-1.2	-3	·	-12
> CNc1nc(Nc2ccc(C(C)=O)cc2)nc(OC(C(F)(F)F)C(F)(F)F)n1
    ·	·	2341	0.5	-14	-2	-16
> CCOC(=O)C1CCN(C(=O)c2cccc(NS(=O)(=O)c3ccc(Br)cc3)c2)CC1
    -1	4	·	1.2	2	·	-16
> O=C(CNC(=O)C(c1ccccc1)c1ccccc1)OCC(=O)c1cccs1
    6	-1	7499	0.5	22	7	2
> NS(=O)(=O)c1cc(C(=O)OCC(=O)Nc2ccc(N3CCCCC3)cc2)ccc1Cl
    6	6	5963	14	4	8	-39
> CCCCNC(=O)CSc1nccn1Cc1ccccc1
    -11	-1	8787	-0.1	0	1	-22
> Cn1cccc1C=NNC(N)=S
    14	20	·	3.4	4	·	·
> CC(C)(C)C(=O)/C=C1\SCC(=O)N1CC(=O)N1CCN(c2ccccc2)CC1
    7	18	3428	-1.3	-14	·	-21
> COc1ccccc1CN1CCC(CNS(=O)(=O)c2cc(-c3cc(C)no3)ccc2OC)CC1
    4	7	7751	1.8	4	13	-10
> O=C(CCC(=O)Nc1ccccc1)NN=Cc1cccnc1
    10	1	·	1.9	1	·	·
> CN(C)CCNC(=O)c1cccc(S(=O)(=O)Nc2ccc(F)cc2)c1
    12	0	3232	1.2	-1	4	9
> CCOC(=O)NN=C(C)c1ccc(-n2cnnn2)cc1
    8	10	·	14	19	·	·
> Cc1cc(C)cc(NC(=O)CN2CCN(c3ccccc3)CC2)c1
    5	4	3789	2.7	5	6	-12
> FC(F)(F)c1cccc(N2CCNCC2)c1
    5	-2	·	1.8	-2	7	·
> CCOc1ccccc1CN1CCNC(=O)C1CC(=O)NCCC1=CCCCC1 (configuration not stated)
    1	14	7231	4.5	-3	0	-6
> CCOC(=O)C1CCCN(C(=O)CCCOc2cc(=O)n(C)c3ccccc23)C1 (configuration not stated)
    0	2	?	2.0	-1	12	-17
> CCSc1nnc(NC(=O)C(C)Sc2nc3ccccc3[nH]2)s1 (configuration not stated)
    5	8	1882	-1.1	2	-2	-1
> O=C(CSc1nnc(NC(=O)c2ccco2)s1)Nc1ccc2c(c1)OCCO2
    ·	·	4284	·	·	-2	-23
> Cc1ccc(-n2ccn(CC(=O)NCCc3ccccc3)c(=O)c2=O)cc1C
    1	-2	6494	0.3	-1	14	-23
> COC(=O)c1cc(NC(=O)c2cccc(C(F)(F)F)c2)c(=O)oc1C
    3	-2	4180	3.5	4	-2	-26
> CCOc1ccc(N2CC(=O)SC2=S)cc1
    5	7	7508	7.8	5	-2	-6
> CCOC(=O)N1CCN(c2ccc(S(=O)(=O)N(Cc3ccccc3)Cc3ccccc3)cn2)CC1
    -3	-3	3313	14	3	14	-13
> COc1ccc([N+](=O)[O-])cc1-n1cccc1
    7	6	2127	5.6	0	1	-17
> Cc1ccc(-n2nnnc2Sc2nc([N+](=O)[O-])nn2C)cc1
    8	6	2026	-7.0	28	16	-5
> CCOC(=O)C1(C(=O)OCC)CCN(S(=O)(=O)c2ccccc2)CC1
    3	7	3463	5.6	4	·	-18
> O=c1[nH]c(=O)n(Cc2ccc(F)cc2)c(O)c1C=NCC1CCCO1 (configuration not stated)
    1	1	3657	-1.2	7	-4	-5
> COc1ccc(-c2nn(-c3ccccc3)cc2CNCc2cccnc2)c(F)c1
    -5	-6	4416	3.3	6	7	-18
> O=c1c2ccccc2[nH]c(=S)n1CCCn1ccnc1
    0	2	3855	4.0	-3	3	3
> CCOc1ccc(NC(=O)CN2CCc3ccccc3C2)cc1
    3	6	3720	4.6	11	1	-23
> CC(=O)NC(CC(=O)OCC(=O)Nc1ccc2c(c1)OCO2)c1ccccc1 (configuration not stated)
    6	9	3785	1.3	-5	-5	-27
> CCOC(=O)/C=C/C(=O)OCc1csc(CC(=O)Nc2ccccc2C)n1
    7	-1	6048	1.8	5	4	-24
> Cc1cccc(C(=O)NCCNC(=O)c2cccnc2)c1
    -1	-7	5850	1.8	-3	-12	8
> Cn1c(=O)c2c(nc(Oc3cccc(Br)c3)n2C)n(C)c1=O
    7	16	3776	7.2	5	8	-12
> CCOC(=O)c1ccc(NC(=O)CSc2ccc(-c3ccncc3)nn2)cc1
    2	-5	4200	-2.1	6	-10	-12
> Cc1cc(F)ccc1S(=O)(=O)N1CCCOC1CNC(=O)C(=O)NCCC1=CCCCC1 (configuration not stated)
    -1	5	2434	3.0	13	-12	14
> COc1ccc2c(c1OC)C(=O)N1c3ccccc3C(=O)N(c3ccc(F)cc3)C21 (configuration not stated)
    9	-6	3124	2.4	4	11	5
> COc1ccc(OC)c(NC(=O)CCN2CCN(CCO)CC2)c1
    -15	4	4973	1.0	2	-4	-16
> CCCCNC(=O)CSc1nc2c(sc(=S)n2-c2cc(Cl)ccc2OC)c(=O)[nH]1
    1	1	3027	6.1	4	-3	-16
> CCc1cccc(OCCCCNCCCOC)c1
    11	18	2077	-0.8	10	5	-23
> c1ccc(Cc2noc(CN3CCN(Cc4ccc5c(c4)OCO5)CC3)n2)cc1
    0	-8	4343	4.7	14	6	2
> Cc1cc(S(=O)(=O)N2CCOCC2)ccc1OCC(=O)Nc1ccc(Br)cc1F
    -4	4	4182	1.1	2	-3	-13
> COc1ccc(CNC(=O)CCSc2ccc(F)cc2)cc1OC
    1	14	4874	2.6	0	-2	-15
> O=C(NCCc1ccc(F)cc1)c1n[nH]c2ccccc12
    0	-1	3211	3.6	-4	-5	-80

Going on with the list:
Every second line gives: Mtb hypoxia inh growth	Mtb hypoxia inh	Autofluor counter	Sa RN4220 lethal	Sa ugtP lethal	BJeLR lethal	PrP UTR inh
> COc1ccc(-c2cn3cc(C)ccc3n2)cc1OC
    16	10	3641	8.7	-3	2	-36
> COc1cc(NS(=O)(=O)c2ccc(NC(=O)c3ccc(F)cc3)cc2)ncn1
    13	0	?	-1.9	5	-2	-17
> Nc1nc(SCC(=O)Nc2ccc(OCc3ccccc3)cc2)n[nH]1
    -8	-8	4124	2.9	-7	15	-31
> Cc1cccc(N2C(=O)CS/C2=N\NC(=O)c2ccc(Cl)cc2)c1C
    ·	·	11238	·	·	-11	-2
> O=C(c1ccc(F)c(S(=O)(=O)N2CCOCC2)c1)N(CCc1ccccc1)Cc1ccccc1
    -2	-3	4612	-1.3	1	-8	-53
> Cc1ccc(NC(=O)NC(=O)c2ccccc2)cc1F
    -1	6	4111	2.4	7	4	-80
> Cc1ccc(-c2cc(C(=O)Nc3cc(C)on3)c3ccccc3n2)c(C)c1
    2	2	6199	-0.8	10	3	-23
> CC(C)CN(C#N)c1nc(N2CCOCC2)nc(N2CCOCC2)n1
    ·	·	2108	6.8	8	-1	6
> C=CCN1C(=O)c2ccccc2NC1c1cc(Br)cs1 (configuration not stated)
    5	12	3568	-3.4	9	17	-14
> Cc1cccn2c(=O)c3cc(C(=O)NCCC4=CCCCC4)n(C)c3nc12
    2	10	5357	19	10	8	-6
> CN(C)c1nc(C#N)nc(N2CCOCC2)n1
    11	18	2457	-16	-5	2	-21
> CCC1(C2=CCCCC2)C(=O)NC(=O)N=C1N (configuration not stated)
    9	17	3585	-1.8	-2	·	-13
> O=C(Cc1ccccc1)OCC(=O)c1cccc([N+](=O)[O-])c1
    -1	6	3884	4.1	1	·	-11
> O=C(COc1cccc(Cl)c1)Nc1ccc(N2CCOCC2)cc1
    -1	2	3065	0.7	-8	10	-14
> O=C(CSc1nnc(Nc2ccccc2)s1)NN1C(=O)NC2(CCCCC2)C1=O
    10	11	2354	4.1	3	-1	-14
> Cc1cc(NC(=O)c2ccccc2)c(Cl)cc1N
    -7	-6	3587	4.1	-5	12	11
> CC1CCC(C(C)C)C(OP(=O)(c2ccccc2)C(O)c2ccncc2)C1 (configuration not stated)
    4	7	4350	4.4	-2	1	-32
> CC(C)Oc1ccc(S(=O)(=O)N2CCCCC2)cc1NC(=O)CN1C(=O)NC2(CCCC2)C1=O
    -6	4	6620	2.9	1	2	-26
> O=C(NN=Cc1ccco1)C(O)C(O)C(=O)NN=Cc1ccco1 (configuration not stated)
    -1	-21	·	4.5	-1	·	·
> O=C(COc1ncnc2c(Cl)cc(Cl)cc12)N1CCN(S(=O)(=O)c2ccccc2)CC1
    ·	·	4779	-2.8	-6	0	-14
> O=[N+]([O-])c1ccc(COc2ccc(CNc3ccccc3)cc2)cc1
    -6	10	2066	4.7	6	4	-8
> COc1cc2cc(C#N)c(SCC(=O)Nc3cc(C)on3)nc2cc1OC
    2	0	4991	-3.1	-8	-8	3
> COCCNC(=O)C(c1ccc(C)cc1)N(Cc1cccs1)C(=O)CCC(=O)Nc1ccccn1 (configuration not stated)
    1	3	3720	2.1	0	-3	-21
> CCn1c(Cc2ccc(OC)cc2)nnc1SCC(=O)Nc1cccc(C(=O)OC)c1
    -4	2	9586	5.3	6	·	-34
> Cc1ccc(-c2csc(N3CCN(CCCn4c(C(F)(F)F)nc5ccccc54)CC3)n2)cc1
    8	4	4232	1.4	-5	3	-46
> CN(Cc1ccccc1)C(=O)CCS(=O)(=O)c1cc2c(cc1Cl)NC(=O)CO2
    0	4	6356	4.5	6	-12	-27
> CCCCN=C1CC(C)(C)CC(=O)/C1=C(\O)CCC
    15	23	·	2.6	0	·	·
> COc1cc(C(=O)N/C(=C\c2cn(C)c3ccccc23)C(=O)N2CCN(C)CC2)cc(OC)c1OC
    -1	0	5355	0.2	0	-6	-10
> COc1ccc(C=O)cc1OS(=O)(=O)c1ccccc1[N+](=O)[O-]
    2	6	2628	2.1	-4	-5	-5
